Beta apoptosis: blocks beta cell apoptosis | 300,000 tested, 0.8% active | protection from apoptosis, % (concentration not given with the values) | INS-1E cytokine-induced death, ATP luminescence, 48 h; percent of positive-control rescue, neutral wells zero | AID 435005;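 active = all replicates at 75% or more, or half of them and the mean; inconclusive = half reach 75% but not the mean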;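 note: 0% = cytokine-treated negative control wells and 100% = positive control rescue; higher means more ATP so stronger rescue from cytokine killing; wells of about 40 µL received 100 nL stock; the first replicate is given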
A1 inh: inhibitors of the anti-apoptotic protein A1, read as caspase activation; MEF A1-2A-BIM cells, Caspase-Glo 3/7 luminescence, 3 h; percent of clofoctol response, vehicle zero; caspase activation, % (concentration not given with the values); 330,000 tested, 0.066% active; AID 2462;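 active = over half of replicate activation scores above 10%, or exactly half above 10 with the replicate mean above 10; inconclusive = replicate mean below 10 yet half the replicates above 10; inactive = over half of replicates below 10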;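 note: wells of about 30 µL received 50 nL stock; many hits fall short of the cut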
MLL AF4-AF9 inh: blocks AF4 peptide binding to human AF9; P42568; AlphaScreen, biotin-AF4 peptide binding to FLAG-AF9; inhibition, % at 10 µM; 350,000 tested, 0.47% active; AID 651704;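 active = every replicate reaching a set inhibition limit, whatever the replicate mean, cut at about 25% in these data; inconclusive = mean inhibition reaches that limit but some replicates miss it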;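 note: 0% = plate neutral control median and 100% = total signal loss; the record names both 10 and 1 µM as test concentration; the first replicate is given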
Target sequence (P42568 whole entry, looked up): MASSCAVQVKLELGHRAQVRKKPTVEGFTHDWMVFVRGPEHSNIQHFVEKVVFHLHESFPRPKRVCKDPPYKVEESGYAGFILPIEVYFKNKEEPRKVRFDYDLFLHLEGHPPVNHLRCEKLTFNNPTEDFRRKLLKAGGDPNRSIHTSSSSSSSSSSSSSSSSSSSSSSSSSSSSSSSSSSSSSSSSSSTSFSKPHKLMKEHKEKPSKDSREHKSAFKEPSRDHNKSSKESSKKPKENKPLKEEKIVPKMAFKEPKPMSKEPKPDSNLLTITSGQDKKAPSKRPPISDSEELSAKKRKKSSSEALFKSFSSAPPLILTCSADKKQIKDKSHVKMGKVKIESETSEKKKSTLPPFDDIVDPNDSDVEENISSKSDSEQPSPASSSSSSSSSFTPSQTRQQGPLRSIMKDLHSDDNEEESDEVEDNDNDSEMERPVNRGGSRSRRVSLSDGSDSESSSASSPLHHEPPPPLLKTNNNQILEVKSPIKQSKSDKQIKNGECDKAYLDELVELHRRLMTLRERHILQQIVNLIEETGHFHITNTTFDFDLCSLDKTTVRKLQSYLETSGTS
RanGTP-Imp inh: inhibitors of RanGTP-importin-beta interaction, primary screen, biochemical, FRET, CFP-Ran, YFP-importin-beta, homogeneous; cell-free CFP-Ran/YFP-importin-beta FRET ratio; inhibition, % (no concentration beside the values); 300,000 tested, 1.1% active; AID 2216;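 active = most replicates above 15%; inconclusive = exactly half above 15%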;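 note: 0% = DMSO wells and 100% = Ran loaded with GDP instead of GTP; wells of about 40 µL received 100 nL stock; the first replicate is given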
T cruzi repl: T. cruzi replication inhibition; T. cruzi beta-gal in NIH3T3, luminescence, 90 h; inhibition, % (test concentration not listed); AID 1885; 300,000 tested, 1.4% active;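 active = mean inhibition across valid replicates above about 55%, limit read from the data; inconclusive = mean below that limit but half or more replicates reach it; inactive = mean below it, under half of replicates reach it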;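 note: signal also drops with host cell toxicity which is not excluded here; 0% = plate median of DMSO wells and 100% = zero luminescence signal; higher percent means less beta-gal luminescence so fewer parasites; stock transfer was 50 nL into about 50 µL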
Vif A3G: HIV-1 Vif–A3G interaction blockers – biochemical, TR-FRET, GST-Vif 1-94, biotin-A3G peptide, dose response retest, primary screen (AID 1117319); TR-FRET GST-Vif / biotin-A3G peptide binding; higher % means a stronger effect; test concentration not given here; strong numbers were not always called active; inhibition, %, or IC50 in µM where a hit was titrated; 260,000 tested, 0.57% active;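 active = above the screen mean plus three standard deviations and confirmed in dose response; inconclusive = results disagree or hit not tested in dose response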;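 note: Vif residues 1-94 fused to GST binding biotinylated APOBEC3G peptide 110-148; 0% = full assay without inhibitor and 100% = GST in place of GST-Vif; retest series ran down from 100 µM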
Calb FLC: affects C. albicans growth with fluconazole | C. albicans CaCi-2 (fluconazole-resistant clinical isolate) + fluconazole, Alamar Blue growth, 48 h | growth inhibition, % (test concentration not listed) | 300,000 tested, 0.57% active | AID 1979;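 active = most replicates above 75%; inconclusive = exactly half above 75%; inactive = most below 75%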;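 note: all wells also contain fluconazole at 8 µg/ml as a sub-toxic cotreatment; 0% = median of DMSO wells and 100% = median of geldanamycin control wells; wells of about 8 µL received 7.5 nL stock; the first replicate is given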
rRNA inh HTS: inhibits bacterial ribosomal RNA function over humanized ribosomes; GFP signal change (wild-type ribosome), % (test concentration not listed); 350,000 tested, 1.6% active; E. coli WT GFP vs humanized-ribosome RFP mutants, fluorescence, 24 h; stronger effect = lower value; DMSO median 0, no signal -100;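 active = significant combined selectivity score with lowered wild-type GFP, culture density cut under 30%, mutant RFP and density less affected; inactive = any of these conditions unmet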; note: one replicate is shown; some compounds called inactive have numbers as strong as hits
rRNA inh HTS OD600: recorded beside rRNA inh HTS, whose call it bears; OD600 change, %; measured here: OD600 growth;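 optical density of the mix in the first replicate; 0 = DMSO median and -100 = no signal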
rRNA inh HTS RFP: further read-out of rRNA inh HTS, marked with its call; RFP signal change, %; measured here: RFP humanized mutant strains;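 first replicate; 0 = DMSO median and -100 = no signal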
* hit, by the source's call; ? = inconclusive; . = not tested or not shown.

The opening four records, ahead of the listing:
SMILES	Beta apoptosis	A1 inh	MLL AF4-AF9 inh	RanGTP-Imp inh	T cruzi repl	Vif A3G	Calb FLC	rRNA inh HTS	rRNA inh HTS OD600	rRNA inh HTS RFP
CCCCCCOC(=O)CCc1c(C)nc(N)[nH]c1=O	-5	-0.6	.	4.4	1	16%	-3	.	.	.
C=CCOn1c(C)c(C(C)=O)c2c3no[n+]([O-])c3ccc21	4	-0.2	.	-1.8	-11	?	18	.	.	.
CC(=O)c1cc(CN2CCC(n3nccc3NC(=O)c3ccccc3C)CC2)cs1	3	-0.2	-0.2	-3.3	22	6%	-5	7	17	-2.2
Cc1ccc(S(=O)(=O)N2CCC3(CC2)OCCN3S(=O)(=O)c2c(C)cc(C)cc2C)cc1	.	-0.4	-13	-3.8	39	3%	-5	-2	2	-4.1

The list itself, previewed entries included:
SMILES	Beta apoptosis	A1 inh	MLL AF4-AF9 inh	RanGTP-Imp inh	T cruzi repl	Vif A3G	Calb FLC	rRNA inh HTS	rRNA inh HTS OD600	rRNA inh HTS RFP
CCCCCCOC(=O)CCc1c(C)nc(N)[nH]c1=O	-5	-0.6	.	4.4	1	16%	-3	.	.	.
C=CCOn1c(C)c(C(C)=O)c2c3no[n+]([O-])c3ccc21	4	-0.2	.	-1.8	-11	?	18	.	.	.
CC(=O)c1cc(CN2CCC(n3nccc3NC(=O)c3ccccc3C)CC2)cs1	3	-0.2	-0.2	-3.3	22	6%	-5	7	17	-2.2
Cc1ccc(S(=O)(=O)N2CCC3(CC2)OCCN3S(=O)(=O)c2c(C)cc(C)cc2C)cc1	.	-0.4	-13	-3.8	39	3%	-5	-2	2	-4.1
CCCCN(Cc1cc2ccccc2[nH]c1=O)S(C)(=O)=O	-4	0.1	.	1.8	-14	7%	3	.	.	.
Cc1cc(NC(=O)C2CC2)ncc1NC(=O)C12CC3CC(CC(C3)C1)C2	2	-0.1	.	-4.0	2	?	13	.	.	.
c1cncc(-c2nc3ccccc3[nH]2)c1	2	-2.0	.	5.1	-5	?	?	.	.	.
CN(C)c1ccc(CN(C(=O)c2ccccc2Br)C2CCS(=O)(=O)C2)cc1 (stereo unspecified)	-2	-0.1	4.3	4.8	-23	.	-11	3	0	-0.9
C=CCNC(=O)c1c(CSc2ccccc2)noc1C(=O)NCc1ccccc1	2	-0.1	0.3	.	.	14%	.	-10	-18	-13
O=C(C[n+]1cc(Br)cc2ccccc21)c1ccc(F)cc1	5	0.3	6.1	-3.8	23	-32%	-2	3	13	3.9

Results in MLL AF4-AF9 inh, Calb FLC and RanGTP-Imp inh, for some of the entries so far:
smiles	MLL AF4-AF9 inh	Calb FLC	RanGTP-Imp inh
CCCCN(Cc1cc2ccccc2[nH]c1=O)S(C)(=O)=O	.	3	1.8
Cc1cc(NC(=O)C2CC2)ncc1NC(=O)C12CC3CC(CC(C3)C1)C2	.	13	-4.0
c1cncc(-c2nc3ccccc3[nH]2)c1	.	?	5.1
CN(C)c1ccc(CN(C(=O)c2ccccc2Br)C2CCS(=O)(=O)C2)cc1 (stereo unspecified)	4.3	-11	4.8
C=CCNC(=O)c1c(CSc2ccccc2)noc1C(=O)NCc1ccccc1	0.3	.	.
O=C(C[n+]1cc(Br)cc2ccccc21)c1ccc(F)cc1	6.1	-2	-3.8

Continued:
SMILES	Beta apoptosis	A1 inh	MLL AF4-AF9 inh	RanGTP-Imp inh	T cruzi repl	Vif A3G	Calb FLC	rRNA inh HTS	rRNA inh HTS OD600	rRNA inh HTS RFP
CCNC(=S)N1CCc2cc(OC)c(OC)cc2C1COc1ccccc1OC (stereo unspecified)	3	-0.6	5.0	-2.0	12	-9%	29	-14	-12	0.6
CSc1nnc([C@H](Cc2c[nH]c3ccccc23)NC(=O)OC(C)(C)C)o1	1	0.3	9.5	5.7	13	?	-10	-3	0	-2.1
CN(CC(=O)Nc1ccc(F)c(F)c1F)C(=O)C1CC(=O)N(c2ccc3c(c2)OCCO3)C1 (stereo unspecified)	1	0.5	1.3	0.6	-10	2%	-1	5	2	-1.5
O=c1c2ccccc2ncn1Cc1ccc(Cl)c(Cl)c1	-8	0.6	-1.0	2.5	-8	5%	9	2	5	1.3
COc1cccc(NC(=O)C2CCCN(S(C)(=O)=O)C2)c1 (stereo unspecified)	-12	-0.8	-2.1	4.0	-11	6%	1	6	10	0.2
CCCCN(C(=O)Cn1nnc2ccccc21)C(C(=O)NCCOC)c1cccs1 (stereo unspecified)	-8	-0.2	.	1.6	7	2%	27	.	.	.
Cc1nnc(NC(=O)c2sc3nc(-c4cccs4)cc(C(F)(F)F)c3c2N)s1	4	-0.7	-2.5	0.7	-11	4%	21	11	5	15
COC(=O)c1ccc(NC(=O)COC(=O)C2=NN(c3ccccc3)C(=O)CC2)cc1	-1	0.0	-3.3	.	.	-11%	.	3	7	-1.7
COC(=O)c1ccc(NC(=O)COc2ccc([N+](=O)[O-])cc2)cc1	-2	-0.7	-4.0	1.4	6	15%	-4	14	3	-2.1
CCOCCCNCC(=O)Nc1ccc(S(=O)(=O)NC(C)CC)cc1 (stereo unspecified)	3	1.3	-1.5	-0.1	8	26%	-11	7	-4	-1.4
O=C(CCC(=O)N1CCN(S(=O)(=O)c2ccc(Cl)cc2)CC1)Nc1ccc2ccccc2c1	-4	1.0	.	-2.4	-26	-10%	-7	.	.	.
CCOCCCNC(=O)C(NC(=O)c1cnccn1)c1ccc(C)cc1 (stereo unspecified)	3	0.2	.	1.9	-18	30%	-1	.	.	.
CCn1cc(S(=O)(=O)N2CCCC2)cn1	.	-1.2	-2.1	4.9	-6	.	1	3	-2	-0.8
O=c1cc(N2CCC3(CC2)OCCO3)[nH]c(=O)n1C1CCCCC1	5	1.5	.	1.7	-18	17%	4	.	.	.
Cc1ccc(C2CC2c2n[nH]c(=S)n2-c2ccc(Cl)cc2)cc1 (stereo unspecified)	-3	0.3	.	-0.3	11	1%	21	.	.	.
O=C(O)c1[nH]c2ccccc2c1CC(=O)N1CCN(c2ccccc2)CC1	-8	0.5	0.0	1.3	-1	-15%	9	-17	-29	0.7
CCOC(=O)/C(=N\Nc1ccc(OC)cc1)c1csc(Nc2ccccc2)n1	6	0.3	8.7	7.2	81*	0%	-15	5	32	35
Cc1csc2ncc(C(=O)Nc3ccccc3Cl)c(=O)n12	.	-2.7	-3.7	-1.3	-4	-1%	-3	9	10	-1.1
COc1ccccc1CNC(=O)C1Cc2cc(S(=O)(=O)N3CCCC3)ccc2N1C(C)=O (stereo unspecified)	.	2.2	2.6	1.3	4	2%	-2	6	-8	1.3
O=C(Nc1ccc(Cl)cc1Cl)c1ccc2c(=O)n3c(nc2c1)CCC3	.	0.4	-9.1	4.1	-5	6%	6	2	7	-0.8

Sorted by molecular weight (smallest number first): 3 of the compounds above
SMILES	Beta apoptosis	A1 inh	MLL AF4-AF9 inh	RanGTP-Imp inh	T cruzi repl	Vif A3G	Calb FLC	rRNA inh HTS	rRNA inh HTS OD600	rRNA inh HTS RFP
O=c1cc(N2CCC3(CC2)OCCO3)[nH]c(=O)n1C1CCCCC1	5	1.5	.	1.7	-18	17%	4	.	.	.
CCOCCCNC(=O)C(NC(=O)c1cnccn1)c1ccc(C)cc1 (stereo unspecified)	3	0.2	.	1.9	-18	30%	-1	.	.	.
Cc1ccc(S(=O)(=O)N2CCC3(CC2)OCCN3S(=O)(=O)c2c(C)cc(C)cc2C)cc1	.	-0.4	-13	-3.8	39	3%	-5	-2	2	-4.1

Next part:
SMILES	Beta apoptosis	A1 inh	MLL AF4-AF9 inh	RanGTP-Imp inh	T cruzi repl	Vif A3G	Calb FLC	rRNA inh HTS	rRNA inh HTS OD600	rRNA inh HTS RFP
CCCNC(=O)NNC(=O)c1cc(-c2ccc3c(c2)OCO3)nc2ccccc12	-8	-0.5	-4.5	2.0	8	4%	-4	-16	-17	-5.9
CN1C(=O)c2cccc(NC(=O)Cc3ccccc3)c2C1=O	-11	0.1	-2.3	-0.9	3	1%	2	13	15	0.4
O=C(Nc1ccc(Br)cc1)c1csc(-c2ccncc2)n1	-2	0.0	0.1	-2.7	6	-2%	48	6	10	0.4
Cc1nc(Oc2ccccc2)c2oc3ccccc3c2n1	11	0.2	.	5.9	-1	5%	-10	.	.	.
CCc1c(C)nc2ncnn2c1Nc1ccc(C)c(C)c1	6	0.4	.	-3.9	-3	-6%	-3	.	.	.
CCN(c1ccccc1)S(=O)(=O)c1cc(C(=O)NCC(c2ccco2)N2CCCCC2)ccc1C (stereo unspecified)	12	-0.2	4.8	.	.	.	.	-9	-19	-0.2
Cc1cc(SCC(=O)NC2CC2)nc2ccccc12	-2	-0.5	-0.9	.	.	.	.	-2	-4	0.2
CCC(CC)C(=O)c1c[nH]c(C(=O)NCCc2ccccn2)c1	-2	0.5	.	-0.8	-4	4%	10	.	.	.
Cc1ccc(Cn2cc(SCC(=O)Nc3nccs3)c3ccccc32)cc1	-8	-0.5	-5.2	-4.7	12	-6%	1	-6	6	-2.1
O=C(COc1coc(CN2CCc3ccccc32)cc1=O)Nc1ccccc1	-3	1.4	-0.7	3.6	-2	-3%	-1	5	8	9.0
CCn1c(N2CCN(C(=O)C34CC5CC(CC(C5)C3)C4)CC2)nc2ccccc21	11	-1.1	.	6.4	18	-8%	18	.	.	.
Cc1ccc(CN2CC(C(=O)NCC(=O)Nc3c(C)cccc3C)CC2=O)cc1 (stereo unspecified)	-2	-0.3	-1.9	-2.9	-5	2%	6	4	8	1.8
O=C(N/N=C/c1c(Cl)cccc1Cl)c1ccc(-n2cnnn2)cc1	0	0.2	1.4	.	.	-4%	.	6	12	-7.2
CCN(CCCn1c(=S)[nH]c2ncccc2c1=O)c1ccccc1	3	-0.5	.	0.8	-1	4%	6	.	.	.
O=C(CNS(=O)(=O)Cc1ccccc1)NCc1ccccc1	-3	-0.2	3.9	-1.5	-4	.	-9	8	13	-1.5
Fc1cnc(N/N=C/c2ccc(-c3ccc(Br)cc3)o2)nc1N1CCOCC1	30	-1.3	.	1.5	33	-8%	0	6	8	-2.3
Cc1ccc(C(=O)NC(C)c2ccc(F)cc2)cc1 (stereo unspecified)	.	0.4	-17	1.0	-18	.	-1	12	3	-2.7
O=C(Nc1cccc(C(F)(F)F)c1)c1cccnc1N1CCOCC1	3	1.0	-0.2	?	-10	?	0	3	-3	0.9
O=C(/C=C/Nc1ccc(Nc2ccccc2)cc1)c1cccs1	.	.	7.5	-2.0	18	-6%	15	-23*	-5.5*	5.4*
COC(C[C@@H]1O[C@H]1C(=O)COCc1ccccc1)OC	-7	-0.3	2.8	?	-2	.	0	14	6	7.7
CCOc1ccc(S(=O)(=O)N2CCCC(C(=O)NCC3CCCO3)C2)cc1 (stereo unspecified)	-2	-0.8	-1.3	-4.4	0	.	0	-1	5	0.4
CC(C)c1cc(-c2cc(-c3ccccc3)on2)nc(NC2CCCC2)n1	7	-0.5	-1.2	0.6	11	.	1	12	11	-3.6

Screening data: PubChem BioAssay, several laboratories

These rows are one share of the data. The share of hits here may be higher or lower than overall.
